Assay outcomes: PubChem, several laboratories
A1 inh – inhibitors of the anti-apoptotic protein A1, read as caspase activation; MEF A1-2A-BIM cells, Caspase-Glo 3/7 luminescence, 3 h; percent of clofoctol response, vehicle zero; caspase activation, % (concentration not given with the values); hit rate 0.066% among 330,000; AID 2462;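 active = over half of replicate activation scores above 10%, or exactly half above 10 with the replicate mean above 10; inconclusive = replicate mean below 10 yet half the replicates above 10; inactive = over half of replicates below 10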;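 also: wells of about 30 µL received 50 nL stock; many hits fall short of the cut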
LANA-H2A inh – blocks KSHV LANA binding to histone H2A/H2B | inhibition, % (concentration not given with the values) | hit rate 0.6% among 320,000 | cell-free LANA-H2A/H2B peptide, fluorescence polarization | Q9QR71; in the data active = inhibition mostly above about 10%, no sharp cut-off; inactive = mostly below about 6.7%;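 also: stock transfer was 7.5 nL into about 10 µL; 0% = median of vehicle wells and 100% = median of positive control wells; one replicate is shown; the record names a cut of 25% in any replicate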
Target sequence (Q9QR71 whole entry, looked up): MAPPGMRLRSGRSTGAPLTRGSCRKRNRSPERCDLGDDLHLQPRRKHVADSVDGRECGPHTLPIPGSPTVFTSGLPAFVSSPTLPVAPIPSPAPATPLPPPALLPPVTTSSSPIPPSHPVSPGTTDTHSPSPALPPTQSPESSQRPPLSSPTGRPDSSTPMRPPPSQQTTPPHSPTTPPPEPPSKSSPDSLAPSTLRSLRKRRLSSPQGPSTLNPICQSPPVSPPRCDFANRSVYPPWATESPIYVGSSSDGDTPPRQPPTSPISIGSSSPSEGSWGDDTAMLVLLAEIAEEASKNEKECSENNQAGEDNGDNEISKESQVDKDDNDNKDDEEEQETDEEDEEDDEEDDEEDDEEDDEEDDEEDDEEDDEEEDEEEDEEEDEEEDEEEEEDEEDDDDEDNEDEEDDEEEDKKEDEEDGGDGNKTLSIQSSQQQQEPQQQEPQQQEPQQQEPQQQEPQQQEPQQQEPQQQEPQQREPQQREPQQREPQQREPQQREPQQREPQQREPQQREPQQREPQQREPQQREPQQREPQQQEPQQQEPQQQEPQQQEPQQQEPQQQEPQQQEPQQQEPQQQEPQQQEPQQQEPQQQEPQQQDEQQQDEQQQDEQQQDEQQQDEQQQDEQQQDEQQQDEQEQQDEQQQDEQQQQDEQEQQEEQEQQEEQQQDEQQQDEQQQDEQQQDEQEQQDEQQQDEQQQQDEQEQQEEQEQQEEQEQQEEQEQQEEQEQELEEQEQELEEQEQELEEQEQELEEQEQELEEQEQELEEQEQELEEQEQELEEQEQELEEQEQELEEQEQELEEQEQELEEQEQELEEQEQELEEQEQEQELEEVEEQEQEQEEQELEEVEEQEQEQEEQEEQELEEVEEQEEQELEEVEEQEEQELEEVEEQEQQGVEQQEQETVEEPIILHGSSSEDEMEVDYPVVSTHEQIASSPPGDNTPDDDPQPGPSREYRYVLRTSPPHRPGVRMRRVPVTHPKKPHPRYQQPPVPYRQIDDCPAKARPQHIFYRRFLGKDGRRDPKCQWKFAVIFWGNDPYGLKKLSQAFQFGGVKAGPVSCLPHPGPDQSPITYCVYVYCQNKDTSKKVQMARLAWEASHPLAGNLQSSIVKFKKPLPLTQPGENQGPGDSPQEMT
Vif TR-FRET – HIV-1 Vif–A3G interaction blockers – biochemical, TR-FRET, GST-Vif 1-94, biotin-A3G peptide, dose response retest, primary screen (AID 1117319). TR-FRET GST-Vif / biotin-A3G peptide binding; higher % means a stronger effect; test concentration not given here; strong numbers were not always called active. inhibition, %; hits with a dose series show IC50 in µM. hit rate 0.57% among 260,000;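 active = above the screen mean plus three standard deviations and confirmed in dose response; inconclusive = results disagree or hit not tested in dose response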;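 also: Vif residues 1-94 fused to GST binding biotinylated APOBEC3G peptide 110-148; 0% = full assay without inhibitor and 100% = GST in place of GST-Vif; retest series ran down from 100 µM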
RanGTP-Impb inh – inhibitors of RanGTP-importin-beta interaction, primary screen, biochemical, FRET, CFP-Ran, YFP-importin-beta, homogeneous | inhibition, % (no concentration beside the values) | AID 2216 | cell-free CFP-Ran/YFP-importin-beta FRET ratio | hit rate 1.1% among 300,000;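 active = most replicates above 15%; inconclusive = exactly half above 15%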;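 also: 0% = DMSO wells and 100% = Ran loaded with GDP instead of GTP; wells of about 40 µL received 100 nL stock; the first replicate is given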
T cruzi inh – blocks replication of Trypanosoma cruzi | T. cruzi beta-gal in NIH3T3, luminescence, 90 h | inhibition, % (no concentration beside the values) | hit rate 1.4% among 300,000 | AID 1885;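 active = mean inhibition across valid replicates above about 55%, limit read from the data; inconclusive = mean below that limit but half or more replicates reach it; inactive = mean below it, under half of replicates reach it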;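 also: signal also drops with host cell toxicity which is not excluded here; 0% = plate median of DMSO wells and 100% = zero luminescence signal; higher percent means less beta-gal luminescence so fewer parasites; stock transfer was 50 nL into about 50 µL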
Beta apoptosis – blocks beta cell apoptosis; INS-1E cytokine-induced death, ATP luminescence, 48 h; percent of positive-control rescue, neutral wells zero; protection from apoptosis, % (no concentration beside the values); hit rate 0.8% among 300,000;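 active = all replicates at 75% or more, or half of them and the mean; inconclusive = half reach 75% but not the mean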;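 also: 0% = cytokine-treated negative control wells and 100% = positive control rescue; higher means more ATP so stronger rescue from cytokine killing; wells of about 40 µL received 100 nL stock; the first replicate is given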
AF4-AF9 inh – inhibitors of human MLL-AF4/AF9 interaction. P42568. AlphaScreen, biotin-AF4 peptide binding to FLAG-AF9. inhibition, % at 10 µM. hit rate 0.47% among 350,000;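 active = every replicate reaching a set inhibition limit, whatever the replicate mean, cut at about 25% in these data; inconclusive = mean inhibition reaches that limit but some replicates miss it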;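 also: 0% = plate neutral control median and 100% = total signal loss; the record names both 10 and 1 µM as test concentration; the first replicate is given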
Calb FLC – C. albicans growth modulation with fluconazole; C. albicans CaCi-2 (fluconazole-resistant clinical isolate) + fluconazole, Alamar Blue growth, 48 h; hit rate 0.57% among 300,000; growth inhibition, % (test concentration not listed);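 active = most replicates above 75%; inconclusive = exactly half above 75%; inactive = most below 75%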;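 also: all wells also contain fluconazole at 8 µg/ml as a sub-toxic cotreatment; 0% = median of DMSO wells and 100% = median of geldanamycin control wells; wells of about 8 µL received 7.5 nL stock; the first replicate is given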
* = called active by the depositor; ? = inconclusive; / = no result given; & = joins results of further samples. Rows are unselected, and some 4.3% of all compounds hit somewhere here.

Values run as follows: A1 inh, LANA-H2A inh, Vif TR-FRET, RanGTP-Impb inh, T cruzi inh, Beta apoptosis, AF4-AF9 inh, Calb FLC
O=C(COC(=O)c1cc[n+]([O-])cc1)Nc1cccc(Cl)c1Cl
    0.1, -0.8, -4%, 1.2, 2, -5, -0.4, ?
N#Cc1cn(CC(=O)NCc2cccnc2)c2ccccc12
    0.3, 3.3, 5%, ?, -8, -3, -5.8, 25
CCOc1ccc(Nc2nc(Cc3nnc(SCC(=O)c4ccc(C)c(C)c4)o3)cs2)cc1
    -0.5, -1.1, 1%, -4.0, 7, 97*, 4.7, -26
CCCOc1ccc(C(=O)Nc2ccc3c(c2)OCCO3)cc1
    -5.6, 0.0, /, 7.0, -1, 7, -1.4, -4
CC1CN(C(=O)CCC(=O)N2CCCCC2)c2cc(Cl)ccc2O1 (stereo not drawn)
    0.7, 2.0, /, 0.5, -2, -3, -3.4, -4
Cc1cc(C)n(CCc2nc(-c3ccc(C)o3)cs2)n1
    0.1, -3.2, 28%, -0.3, -25, -8, /, 6
CCCNC(=O)C1CC(=O)N(c2ccc(OCC(=O)Nc3cccc(C)c3C)cc2)C1 (stereo not drawn)
    0.4, -1.2, -1%, 7.5, -3, -1, -1.3, -7
CCOC(=O)Cn1c(C)cc(=O)c2cccc(C)c21
    0.1, 3.7, 16%, 8.1, -15, -8, /, -1
CCC1=NNc2cccc3c(OC)ccc1c23
    -0.5, 7.0, 11%, 2.7, 31, -4, /, -5
CCOc1cc(S(=O)(=O)n2cc(-c3ccc(F)cc3)c(N)n2)cc(OCC)c1OCC
    0.0, -1.0, -2%, 0.5, 22, 32, /, -2
O=C1[C@@H]2[C@H](C(=O)N1Cc1ccco1)[C@H]1C=C[C@@H]2C1
    0.1, -1.5, -5%, -2.9, 1, -4, /, 46
CCOC(=O)c1sc(NC(=O)CSc2nnc(C(C)C)n2CC)nc1C
    0.9, 5.3, -4%, -2.1, -13, 11, /, 0
COc1c(OC(C)=O)ccc(/C=C/c2ccc3ccccc3n2)c1[N+](=O)[O-]
    -12, 1.3, 97µM*, -0.2, -28, -3, -1.1, -4
Cc1ccc(-c2c(=O)n(O)c3ccccc3[n+]2[O-])cc1
    -0.2, 4.3, -8%, -22, -15, 4, 0.0, 2
CCN1CCCC1CNC(=O)c1cc(COc2ccc(C)c(C)c2)on1 (stereo not drawn)
    1.0, 0.8, /, 3.5, 23, -4, 3.2, -21

(continued)
Values run as follows: A1 inh, LANA-H2A inh, Vif TR-FRET, RanGTP-Impb inh, T cruzi inh, Beta apoptosis, AF4-AF9 inh, Calb FLC
CC(=O)c1ccccc1OCC(O)CN1CCN(c2ccccn2)CC1 (stereo not drawn)
    -0.4, -3.8, /, 7.3, -16, /, 1.1, 19
Cc1cccc(C)c1NC(=O)CNC(=O)c1ccc(COc2ccccc2)o1
    -0.3, 0.5, /, /, /, 0, -1.5, /
CCOC(=O)c1ccc(NC(=O)Nc2cc(C)cc(C)n2)cc1
    0.5, 1.1, -4%, 5.6, -15, 12, -1.1, -3
CCOC(=O)N1CCN(S(=O)(=O)c2ccc3c(c2)CCN3C(=O)CC)CC1
    -0.6, -0.8, 21%, -0.4, 3, -3, /, -1
CCOc1ccccc1CN1CCC(N2CCC(C(=O)NC3CC3)CC2)CC1
    1.0, 3.2, /, 6.0, -15, -2, -0.4, -5
Cc1ccc(Nc2nc(C(=O)N3CCC(C(=O)NC(C)C)CC3)cs2)cc1
    0.7, -0.4, 8%, -3.8, 0, 1, -9.7, -5
CCOc1ccc(CCNC(=O)COC(=O)c2ccncc2)cc1OCC
    -0.5, -4.2, /, /, /, -4, 5.0, /
O=C(COC(=O)c1cnccn1)Nc1ccc(Cl)cn1
    1.3, -0.8, 6%, 3.0, -5, 0, -18, /
CC1CCN(CCCn2c(=S)[nH]c3c(sc4ccc([N+](=O)[O-])cc43)c2=O)CC1
    0.4, -1.2, /, 2.3, 12, -3, -3.3, 19
Cc1cc(NC(=O)CN2C(=O)NC3(CCCCC3)C2=O)no1
    0.4, -0.3, /, -1.7, -12, 1, -3.3, ?
CCn1cc(C(=O)NCc2cccs2)c(=O)c2cc(S(=O)(=O)N3CCOCC3)ccc21
    0.7, 2.2, 12%, -3.6, 4, 1, -11, -7
O=C(Nc1ccc(Cl)cn1)c1ccc2c(c1)OCCO2
    0.6, -1.5, 17%, 4.6, -10, 2, 3.1, -49
CCOC(=O)C1=C(C)N(CCCC(=O)O)C(=O)NC1c1cc2ccccc2c2ccccc12 (stereo not drawn)
    0.1, 3.1, /, 4.8, -4, -7, -2.1, 19
Cc1ccc(S(=O)(=O)N2CCOCC2)cc1NC(=O)COC(=O)C1(C)CC1(Cl)Cl (stereo not drawn)
    -0.8, -12, /, /, /, 2, -2.5, /
Cc1cc2c(cc(C(=O)OC(C(=O)NC3CCCCC3)C(C)C)n2C)o1 (stereo not drawn)
    0.2, /, 17%, /, /, -5, -1.6, /

Records above that bear a hit mark in Vif TR-FRET:
molecule	LANA-H2A inh	Vif TR-FRET	RanGTP-Impb inh	AF4-AF9 inh
COc1c(OC(C)=O)ccc(/C=C/c2ccc3ccccc3n2)c1[N+](=O)[O-]	1.3	97µM*	-0.2	-1.1

Remaining list, next part
Values run as follows: A1 inh, LANA-H2A inh, Vif TR-FRET, RanGTP-Impb inh, T cruzi inh, Beta apoptosis, AF4-AF9 inh, Calb FLC
CC(Sc1ccccn1)C(=O)NC1CCCC1 (stereo not drawn)
    0.3, -4.7, -17%, /, /, -9, 0.6, /
Cc1ccc(-c2nnc(NCc3ccccc3)c3ccccc23)cc1
    -0.1, 1.2, /, -6.2, 24, 30, -5.0, -2
Cc1ccc2nc(-c3cccc(Br)c3)cc(C(=O)NCC3CCCO3)c2c1 (stereo not drawn)
    0.5, 5.3, 5%, -0.8, 11, 19, -12, 1
Cn1c(=O)cc(N2CCN(C(=O)c3ccco3)CC2)[nH]c1=O
    0.7, 0.1, /, 4.6, -15, 1, 6.5, 4
O=C(Nc1nnc(-c2cccs2)s1)c1cccc(F)c1
    -2.1, 3.8, -5%, /, /, 1, -2.1, -1
O=C(Oc1ccc(-c2nnco2)cc1)c1ccc(F)c(S(=O)(=O)N2CCOCC2)c1
    0.3, -2.8, /, 1.5, -10, 0, -1.6, 2
Cc1ccc(S(=O)(=O)N2CCN(c3ccnc4cc(Cl)ccc34)CC2)cc1
    1.4, -2.0, 2%, -2.3, 38, 26, 0.6, 23
CCOc1ccc2c(c1)nc(NCCCO)n2Cc1ccccc1
    0.6, -6.4, -11%, -2.3, -1, 0, -37, 6
O=C(CN1CCN(C(=O)c2cccc(-n3cnnn3)c2)CC1)Nc1ccccc1Cl
    -0.2, -3.8, -6%, /, /, -10, ?, /
CC(C)Cc1ccc(C(C)C(=O)Nc2cccnc2)cc1 (stereo not drawn)
    -0.5, -0.7, /, -1.7, 18, 68, 2.9, -10
Nc1ccc(-c2nc3ccc([N+](=O)[O-])cc3[nH]2)cc1
    -3.8, 0.6, /, -3.7, -11, 4, 0.9, -8
CCOC(=O)c1c(CC(C)C)csc1NC(=O)C(C)C
    -0.5, 0.0, -5%, ?, -4, 2, /, -2
COc1cccc(N2CCN(CC(=O)NCc3cccs3)CC2)c1
    0.1, -0.3, 7%, 2.6, 17, -3, /, -2
COc1ccc(OC)c(C(=O)CCCC(=O)c2cc(OC)ccc2OC)c1
    0.7, 2.3, -3%, 5.5, 15, -2, -1.5, 4
CCc1nn(CC(=O)N2CCN(CC)CC2)c(=O)c2cccn12
    0.7, 4.4, /, 2.6, -6, 1, 2.6, 0

Exported with each value named: entries from further up.
Cc1ccc(Nc2nc(C(=O)N3CCC(C(=O)NC(C)C)CC3)cs2)cc1
  A1 inh = 0.7; LANA-H2A inh = -0.4; Vif TR-FRET = 8%; RanGTP-Impb inh = -3.8; T cruzi inh = 0; Beta apoptosis = 1; AF4-AF9 inh = -9.7; Calb FLC = -5
CCOC(=O)c1sc(NC(=O)CSc2nnc(C(C)C)n2CC)nc1C
  A1 inh = 0.9; LANA-H2A inh = 5.3; Vif TR-FRET = -4%; RanGTP-Impb inh = -2.1; T cruzi inh = -13; Beta apoptosis = 11; AF4-AF9 inh = /; Calb FLC = 0
CCOc1ccc(CCNC(=O)COC(=O)c2ccncc2)cc1OCC
  A1 inh = -0.5; LANA-H2A inh = -4.2; Vif TR-FRET = /; RanGTP-Impb inh = /; T cruzi inh = /; Beta apoptosis = -4; AF4-AF9 inh = 5.0; Calb FLC = /
CCOc1ccccc1CN1CCC(N2CCC(C(=O)NC3CC3)CC2)CC1
  A1 inh = 1.0; LANA-H2A inh = 3.2; Vif TR-FRET = /; RanGTP-Impb inh = 6.0; T cruzi inh = -15; Beta apoptosis = -2; AF4-AF9 inh = -0.4; Calb FLC = -5

(more compounds)
Values run as follows: A1 inh, LANA-H2A inh, Vif TR-FRET, RanGTP-Impb inh, T cruzi inh, Beta apoptosis, AF4-AF9 inh, Calb FLC
CCN(CC)S(=O)(=O)c1ccc(Cl)c(C(=O)Nc2cccnc2)c1
    -0.1, 2.0, -2%, -8.8, -25, /, -0.1, 7
COc1nc(NCCO)nc(Nc2ccccc2F)n1
    0.4, -0.5, 6%, 1.2, -19, /, -4.9, 1
O=C(CN1C(=O)c2ccccc2C1=O)N1CCCCC1
    -0.5, -0.6, 0%, 1.9, 2, -7, /, -6
Cc1ccc(NC(=O)CSc2nnc(C)c(=O)n2N)c(C)c1
    0.1, 1.5, 4%, -1.1, 11, -3, /, -37
Cc1ccc(/C=N/N(C)C2=NS(=O)(=O)c3ccccc32)o1
    -0.9, 2.9, 10%, 0.7, 7, 0, /, ?
Cc1ccc(S(=O)(=O)N(C)CC(=O)Nc2ccccc2N2CCCC2)cc1
    0.3, 1.3, -10%, /, /, 0, 4.0, /
COCCn1c(C)cc(C(=O)CSc2nnc(C3CC3)n2C2CC2)c1C
    -0.1, 0.2, /, /, /, 2, -19, /
O=C(NCc1ccccc1)C1=C[C@@H](c2coc3ccccc3c2=O)C[C@@H](OCc2ccc(CO)cc2)O1
    0.0, 0.8, /, 5.6, 24, 32, -5.0&-1.0, 16
Cn1c2c(c3ccccc31)CCSC2=O
    -0.3, 5.0, -7%, 3.8, 1, 4, /, -23
COC(=O)c1c(C)oc2cc(Br)c(OCC(=O)C(C)(C)C)cc12
    0.2, -4.2, -2%, -1.3, 13, 20, /, -6
Cc1c(/C=N/Nc2ccc(F)cc2)c(O)n(C)c(=O)c1C#N
    -0.8, -1.0, 12%, -6.6, -11, -1, -2.7, 14
CC(C)(C)c1ccc2c(c1)OC(C(=O)N/N=C\c1ccncc1)CO2 (stereo not drawn)
    -0.2, -0.9, 6%, -3.2, 0, 2, /, 3
CC1CCCC(C)N1C(=O)COC(=O)c1cc(F)c(F)cc1Cl (stereo not drawn)
    1.0, 3.0, /, /, /, 2, -2.4, /
O=C1/C(=N\O)Cc2ccccc21
    0.4, -1.9, 1%, 1.8, -6, -8, /, -12
CCOc1ccc(CCNC(=O)Cc2nn[nH]n2)cc1OCC
    -0.5, -0.1, 2%, 4.6, 0, -6, /, 8
